Source: PubChem BioAssay
Mtb H37Rv = M. tuberculosis H37Rv growth inhibitors, H37Rv strain (AID 1626); M. tuberculosis H37Rv growth inhibition; higher % means a stronger effect; inhibition, % at 10 µM, or IC50 in µM where a hit was titrated; actives 0.95% (n = 220,000);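 active = confirmed in a dose series; inconclusive = inhibition above 80% but not taken into the dose series; inactive = below 80% or under 30% at every dose of the series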;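 note: bacteria incubated seven days before Alamar blue readout; 0% = bacteria only wells and 100% = bacteria with antibiotic wells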
Mtb bLac sens = beta-lactam sensitization of Mtb H37Rv, H37Rv; actives 0.27% (n = 330,000); M. tuberculosis H37Rv growth with meropenem, percent inhibition; hits of this screen are not shown here; inhibition, % at 25 µM; AID 434955, 2010;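 active = about 74% or more and at least 40 points above the plate without the antibiotic, then above 30% in a dose series; inconclusive = first-round hits that could not be retested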;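 note: growth measured after seven days incubation then overnight dye step; 0% = bacteria only wells and 100% = bacteria with antibiotic; twin plates without the antibiotic show which effects depend on it; some results filed as inactive read as strong as hits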
RecA intein inh = Mtb RecA intein splicing inhibitors, primary screen, biochemical, fluorescence, HTS. cell-free RecA intein splicing. inhibition, %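 (about 9 µM by stock and volumes)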. actives 0.75% (n = 290,000); in the data active = inhibition above about 30%; inconclusive = no clear call, values can overlap the other calls;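 note: 0% = vehicle wells and 100% = reference inhibitor control wells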
Target sequence (P9WHJ3 whole entry, looked up): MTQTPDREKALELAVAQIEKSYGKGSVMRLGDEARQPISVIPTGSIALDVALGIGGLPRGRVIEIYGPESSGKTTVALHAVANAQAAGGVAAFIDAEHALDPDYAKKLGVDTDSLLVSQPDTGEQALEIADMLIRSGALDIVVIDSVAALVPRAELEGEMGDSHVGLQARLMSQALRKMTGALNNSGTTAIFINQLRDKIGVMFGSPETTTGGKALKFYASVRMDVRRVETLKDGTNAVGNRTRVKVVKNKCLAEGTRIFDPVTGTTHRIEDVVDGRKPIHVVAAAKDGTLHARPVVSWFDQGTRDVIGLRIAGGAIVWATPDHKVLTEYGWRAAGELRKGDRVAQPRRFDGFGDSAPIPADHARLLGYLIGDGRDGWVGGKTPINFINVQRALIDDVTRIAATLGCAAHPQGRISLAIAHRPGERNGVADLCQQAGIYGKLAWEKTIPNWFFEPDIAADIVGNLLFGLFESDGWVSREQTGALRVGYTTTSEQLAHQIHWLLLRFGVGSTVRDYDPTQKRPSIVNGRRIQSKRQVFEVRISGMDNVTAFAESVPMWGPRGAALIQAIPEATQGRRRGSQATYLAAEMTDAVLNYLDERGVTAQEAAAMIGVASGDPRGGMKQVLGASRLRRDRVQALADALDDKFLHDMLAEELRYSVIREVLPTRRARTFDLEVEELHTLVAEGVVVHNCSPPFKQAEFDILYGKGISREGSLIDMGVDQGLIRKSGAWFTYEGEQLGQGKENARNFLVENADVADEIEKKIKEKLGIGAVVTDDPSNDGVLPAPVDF
YopH inh = YopH tyrosine phosphatase inhibitors, primary screen, biochemical, fluorescence Ex485/Em525; YopH tyrosine phosphatase [Yersinia enterocolitica]; inhibition, %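 (about 10 µM by stock and volumes)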; actives 0.16% (n = 140,000); AID 898, 2007;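 active = inhibition of 50% or more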;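 note: controls were vehicle for no effect and minimum signal wells for full effect; inactives centre near -20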
Arbovirus inh = antivirals against arbovirus infection, primary screen, cell-based, full library, 10K replicate subset; AID 1251, 2008; arbovirus infection cell-based antiviral screen; actives 0.37% (n = 200,000); inhibition, % at 10 µM;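 active = inhibition from about 30%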;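 note: bluetongue infection of BSR cells; cell survival read as ATP light after 72 h; 0% = infected wells without compound and 100% = uninfected wells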
Arbovirus inh repeat = recorded beside Arbovirus inh, whose call it bears; inhibition, %; measured here: 10K subset replicate screen; many hits read low in the repeat;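 first of two repeat runs on a subset; 0% = infected and 100% = uninfected wells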
Starred values were filed as active, the others as inactive; ? = inconclusive; . = not tested or not shown.

SMILES	Mtb H37Rv	Mtb bLac sens	RecA intein inh	YopH inh	Arbovirus inh	others
COCCN(C(=O)CSc1n[nH]c(-c2ccc(OC)cc2)n1)c1c(N)n(Cc2ccccc2)c(=O)[nH]c1=O	.	-4	-1.6	.	.
COc1ccc([N+](=O)[O-])c(OC)c1C(=O)NC(=O)Nc1c(F)c(F)c(F)c(F)c1F	.	6	-1.1	.	.
Cc1nc(N2CCN(c3ccccn3)CC2)c2c(C)c(C(=O)Nc3ccc(F)cc3F)sc2n1	79%	43	-3.7	.	7
Cc1nn(CC(=O)Nc2ccc3c(c2)OCO3)c(C)c1[N+](=O)[O-]	2%	-1	-2.9	.	9
O=C(O)CCc1nnc2n(Cc3ccc(F)cc3)c(=O)c3ccccc3n12	3%	-7	3.5	-25	1	Arbovirus inh repeat=2
Cc1ccc(Nc2nc(N)nc(CN3CCN(C)CC3)n2)cc1	-2%	-10	-1.3	-24	16
COc1ccc(CCNC(=O)CCCCCN2C(=O)[C@@H]3Cc4ccccc4CN3C2=O)cc1OC	.	-1	-1.9	.	.
NC(=O)C1CCCN(S(=O)(=O)c2ccc3ccccc3c2)C1 (stereo unspecified)	.	9	2.2	.	.
COc1ccc(CN2[C@@H](CC(C)=O)c3ccc(/C=C/C(C)=O)cc3S2(=O)=O)cc1	33%	90	1.7	.	.
NS(=O)(=O)c1ccc(N2C(=O)C3C4CC(C(Br)C4Br)C3C2=O)cc1 (stereo unspecified)	3%	.	.	.	11
CCC1(C)Cc2c(sc3c2c(=O)n(C)c2nnc(SCC(=O)c4ccccc4)n32)CO1 (stereo unspecified)	-4%	?	2.8	26	.
COC(=O)Cn1c(=NC(=O)c2ccc(OC)cc2)sc2cc(OC)ccc21	-3%	-1	-3.0	-20	-3
COc1cc(C(=S)N2CCCC2)ccc1OCc1ccc(C)cc1	.	2	3.0	.	.
O=C(c1cccs1)N(Cc1ccco1)Cc1cc2ccccc2[nH]c1=O	-9%	2	-3.2	-21	2
Cc1ccccc1NC(=O)Nc1nnc(CC(=O)NCc2ccccc2)s1	-2%	-4	6.5	-11	-13
CCOc1c(Nc2ccc(C(C)C)cc2)c(=O)c1=O	1%	0	2.6	.	.
COc1cccc(NC(=O)CSc2nnc(Cn3nnc4ccccc43)n2C)c1	0%	-10	.	-22	-7
Cc1ccc(C(C)C)cc1OCC(=O)NNC(=O)Nc1ccccc1	.	19	-3.9	.	.
Cc1cccc2nc(CNC(=O)CC3C(=O)NCCN3Cc3cccc(F)c3)cn12 (stereo unspecified)	.	1	-14	.	.
NS(=O)(=O)c1ccc(NC(=O)CCCC(=O)O)cc1	2%	2	3.4	.	1
Cc1ccc(-c2nn(-c3cc(Cl)ccc3[N+](=O)[O-])c(=O)c3ccccc23)cc1	18%	7	5.2	-31	-13
COC(=O)[C@H](Cc1ccccc1)NC(=O)[C@@H](N)CC(=O)O	-4%	-1	0.4	.	.
O=C(COC(=O)C1CC2C=CC1C2)Nc1cccc(S(=O)(=O)N2CCCCC2)c1 (stereo unspecified)	8%	-7	5.7	-24	7
Cc1ccc(O)c(NC(=O)c2cc(-c3ccc(F)cc3)on2)c1	12%	1	2.7	.	10
COc1ccc(CNC(=O)c2ccc3c(c2)N(C)CCS3)cc1	.	-4	-6.7	.	.
CC(C)(C)C(=O)Nc1ccc(S(=O)(=O)c2ccc(NC(=O)C(C)(C)C)cc2)cc1	-1%	-4	-3.4	6	-1
C=CCNCCOCCOc1ccc(Cl)cc1C(C)(C)C	2%	7	-0.6	-23	-26
O=c1c2cn[nH]c2[nH]c(=S)n1-c1cccc2ccccc12	8%	5	1.6	-40	8
CCOc1ccc(NS(=O)(=O)c2ccc(C(=O)NCc3ccccn3)cc2)cc1	.	1	-0.3	.	.
Cc1ccc(-c2csc3nc(C)n(N)c(=O)c23)cc1	3%	5	1.7	.	11
c1ccn2c(SCc3ccc4c(c3)OCCO4)nnc2c1	9%	6	.	-20	-1	Arbovirus inh repeat=4
CC1CCc2nc3ccccc3c(C(=O)OCC(=O)NC3CCS(=O)(=O)C3)c2C1 (stereo unspecified)	-5%	-4	-2.9	.	-6
O=C(CC(=O)Nc1ccccc1F)Nc1ccccc1F	.	1	-2.0	.	.
COc1cc(Cl)cc2c1Sc1ccccc1/C2=C/CCN(C)C	59%	-2	-2.7	12	-31
CCOC(=O)CSc1nnc(-c2ccncc2)o1	-4%	-9	0.7	0	-7
CCc1ccc(OC)c(S(=O)(=O)Nc2ccccc2C)c1	3%	3	0.0	-6	-7
Cc1cc(C)nc(NC(=O)c2ccc(Br)cc2)n1	.	4	-1.8	.	.
CC(Sc1nc(O)c(-c2ccccc2)c(=O)[nH]1)C(=O)Nc1ccc(Cl)cc1 (stereo unspecified)	1%	97	2.5	.	-19
Cc1ccc(-c2nnc(Oc3cccc(C)c3)c3ccccc23)cc1	6%	2	-0.1	-37	1
CCN(CC)S(=O)(=O)c1ccc(S(=O)(=O)N2CCN(CCC#N)CC2)cc1	-5%	-5	-0.3	-23	2	Arbovirus inh repeat=0
COc1cccc(CNS(=O)(=O)/C=C/c2ccc3c(c2)OCO3)c1	10%	-1	3.0	-29	0
Cc1occc1-c1nnc(SCC(=O)c2ccc(F)cc2)n1Cc1ccco1	5%	4	6.7	-35	1
Cc1ccc(N(CC(=O)N2CCc3ccccc32)C2=NC(=O)CS2)cc1	-2%	-5	-0.6	-14	-2
Cc1ccc(CN(C)c2nc(-c3cccnc3)nc3ccccc23)o1	.	-7	8.4	.	.
CC(C)(C)OC(=O)NCCC(=O)N/N=C/c1cccc2cccnc12	-3%	-3	-0.2	.	.
NC(=O)Cc1ncc(C(F)(F)F)cc1Cl	3%	5	-0.5	.	4
Cc1ccc(C(=O)CC2(O)C(=O)N(Cc3ccc4c(c3)OCO4)c3ccccc32)cc1 (stereo unspecified)	6%	2	7.8	-2	-14
O=C(CSc1nnnn1C1CCCCC1)NCc1cccs1	4%	-3	8.3	.	-5
O=C(O)c1ccc(N2CCCCCC2)c(N2C(=O)c3ccccc3C2=O)c1	-7%	-2	-1.9	-39	12	Arbovirus inh repeat=1
Cc1cc(C)c(S(=O)(=O)Nc2ccc(OCC(=O)O)cc2)c(C)c1	6%	46	-0.6	-51	0	Arbovirus inh repeat=-3
CS(=O)(=O)N1CCCC(C(=O)NCCCN2CCN(Cc3ccccc3)CC2)C1 (stereo unspecified)	-1%	3	1.1	-35	3
CC(C)(C)c1ccc(C(=O)NCCCN2CCN(CCCNC(=O)c3ccc(C(C)(C)C)cc3)CC2)cc1	5.4µM*	99	1.8	-24	-6
O=C(COC(=O)c1ccccc1Br)NCCc1ccc(F)cc1	32%	?	-1.2	-10	4
C1COCCNCCOCCOCCN1	6%	-6	-1.2	-7	5
CSc1ccc2c(c1)C(N1CCN(C)CC1)Cc1ccc(F)cc1S2 (stereo unspecified)	.	99	11	.	.
COc1ccc(-n2nnnc2SCC(=O)N2CCOCC2)cc1	-1%	-4	0.4	-28	-3	Arbovirus inh repeat=3
Fc1ccc(OCCOCCOc2cccc3[nH]ccc23)cc1	4%	2	-0.3	.	-9
Cc1[nH]c(=S)[nH]c(=O)c1Cc1ccc(OCC(C)C)cc1	-6%	9	-0.9	.	-11
COc1c(-c2ccc(O)c(O)c2)oc2cc(O)cc(O)c2c1=O	-6%	-7	-0.3	.	.
COC(=O)c1cc(NC(=O)c2cccs2)ccc1N1CCOCC1	-5%	2	-0.4	.	-1

Additional records follow:
SMILES	Mtb H37Rv	Mtb bLac sens	RecA intein inh	YopH inh	Arbovirus inh	others
OCCN(Cc1ccccc1)CC(O)COc1ccc2c(c1)OCO2 (stereo unspecified)	.	7	-0.9	.	.
O=C(NCc1cccc(F)c1F)C1CCC(=O)N(C2CC2)C1 (stereo unspecified)	.	-1	-2.7	.	.
CC(NS(=O)(=O)OCC(Cl)(Cl)Cl)c1ccc(Br)cc1 (stereo unspecified)	.	-1	12	.	.
CC(C)NC(=O)c1ccccc1NC(=O)CN(c1ccc2c(c1)OCO2)S(C)(=O)=O	-9%	-9	0.7	-15	-1
Cc1c(C(=O)Nc2ccc(Oc3ccccc3)cc2)sc2nc3n(c(=O)c12)CCC3	16%	76	3.0	-18	-8
Cc1cccc(N(CC(=O)NC(C)C)C(=O)c2ccc(N3CCCC3)nc2)c1	-1%	3	1.5	.	-2
Cc1ccc(C(=O)c2cc([N+](=O)[O-])ccc2N2CCOCC2)c(C)c1	1%	3	3.6	-36	-24
Cc1ccc(NC(=O)CSc2nnc(COc3ccccc3C)o2)cc1	3%	-4	-4.0	.	-14
CCCN1C(=O)NC2(O)C(=O)c3ccccc3C12O (stereo unspecified)	-4%	-6	0.5	-34	4
C=CCn1c(SCC(=O)N2CCOCC2)nc2c([nH]c3ccccc32)c1=O	.	-3	1.4	.	.
Oc1c(Br)cc(/C=N/n2c(-c3ccccc3)n[nH]c2=S)cc1Br	.	-1	0.6	.	.
COc1ccc(-n2c(SCC(=O)Nc3cccc4ccccc34)nc(O)cc2=O)cc1	8%	3	2.6	.	.
O=S(=O)(c1ccc(OCC2CO2)cc1)c1ccc(OCC2CO2)cc1 (stereo unspecified)	7%	-2	5.1	.	-20
Cc1csc(NC(=O)CSc2nc(=O)cc(N)n2-c2ccc(F)cc2)n1	.	5	-1.0	.	.
COCCNc1nnc(SCC(=O)Nc2sc3c(c2C(=O)c2ccccc2)CCCC3)s1	10%	7	6.3	-23	7

5 compounds drawn at random from those above:
SMILES	Mtb H37Rv	Mtb bLac sens	RecA intein inh	YopH inh	Arbovirus inh	others
Cc1cccc(N(CC(=O)NC(C)C)C(=O)c2ccc(N3CCCC3)nc2)c1	-1%	3	1.5	.	-2
CC(C)NC(=O)c1ccccc1NC(=O)CN(c1ccc2c(c1)OCO2)S(C)(=O)=O	-9%	-9	0.7	-15	-1
O=C(NCc1cccc(F)c1F)C1CCC(=O)N(C2CC2)C1 (stereo unspecified)	.	-1	-2.7	.	.
CC(NS(=O)(=O)OCC(Cl)(Cl)Cl)c1ccc(Br)cc1 (stereo unspecified)	.	-1	12	.	.
CCCN1C(=O)NC2(O)C(=O)c3ccccc3C12O (stereo unspecified)	-4%	-6	0.5	-34	4

The results go on:
SMILES	Mtb H37Rv	Mtb bLac sens	RecA intein inh	YopH inh	Arbovirus inh	others
COc1ccccc1N1CCN(S(=O)(=O)CCNC(=O)C2CCCC2)CC1	.	-8	-2.5	.	.
Oc1ccc(C(c2nnnn2CCc2ccccc2)N2CCN(c3nc4ccccc4s3)CC2)cc1 (stereo unspecified)	6%	13	1.4	.	.
CCOC(=O)CSC1=C(C#N)C(c2ccccc2OC)CC(=O)N1 (stereo unspecified)	-1%	0	1.5	-37	-14	Arbovirus inh repeat=-8
CCc1ccc2nc(SCC(=O)Nc3ccccc3N3CCOCC3)c(C#N)cc2c1	1%	-7	3.1	.	.
Cc1ccc(Sc2c(C(=O)Nc3ccc(F)cc3F)c(C(F)(F)F)nn2C)cc1	-5%	95	1.7	-37	7
CCc1cccc(Oc2nn[nH]n2)c1	-2%	30	-2.4	-25	1
CC(OC(=O)c1ccc2c(=O)n3c(nc2c1)CCC3)C(N)=O (stereo unspecified)	4%	-1	2.5	.	14
CC(=O)NCc1cccc(CNC(C)=O)n1	-2%	-32	0.7	-20	1
CNc1c(-n2cc(C(=O)OC)c(C(=O)OC)c2C(=O)OC)c(=O)n(C)c(=O)n1C	.	1	-2.3	.	.
COC(=O)Nc1nncs1	76%	-4	-1.9	.	.
O=C1OCc2cc(NC(=O)C3COc4ccccc4O3)ccc21 (stereo unspecified)	.	2	-0.6	-27	8	Arbovirus inh repeat=-2
O=C(O)c1c(NC(=O)N2CCCC2)sc2c1CCCC2	.	-3	-7.0	.	.
CCn1c(C2CC(=O)N(Cc3ccccc3)C2)nc2ccccc21 (stereo unspecified)	-9%	-2	-1.2	-11	-5	Arbovirus inh repeat=4
O=C(CN1CCOCC1)n1c2c(c3ccccc31)CCCC2	1%	11	0.0	.	4
CCc1ccc(-c2nn(Cc3ccccc3)cc2C=O)cc1	14%	-4	7.1	.	-6
C=CC12C=CC=CN1C(C(=O)OC)=C(C(=O)OC)C(C(=O)OC)=C2C(=O)OC (stereo unspecified)	1%	-1	3.9	-15	-1
NS(=O)(=O)c1cccc(NC(=O)c2cccs2)c1	0%	-1	-0.7	.	.
COC(=O)c1cc(Sc2c(Cl)cccc2Cl)ccn1	34%	85	2.1	.	-6
Cc1ccc(S(=O)(=O)N(C)CC(=O)OCC(=O)c2c(N)n(C)c(=O)n(C)c2=O)cc1	-7%	4	1.2	-9	-5
Cc1ccc(OCCCC(=O)NCc2ccco2)c(C)c1	0%	-2	3.0	.	-7
O=c1[nH]c(=S)[nH]c(O)c1/C=N/N1CCOCC1	-8%	-5	-1.6	.	.

A portion of the library. The share of hits here may be higher or lower than overall.
